# Compound activity deposited in PubChem BioAssay by PCMD.
# Calb biofilm kill: mixture kills Candida albicans biofilm cells | C. albicans biofilm persisters + clotrimazole, fluorescence viability; primary screen in compound mixtures of four per well | inhibition, % at 7.6 µM | 120,000 tested, 0.02% active | AID 1242;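 active means inhibition above 30.3% in the primary screen of four-compound pools, then above 30% when the compound was retested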;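 further: compounds exposed to preformed 24 h biofilms for 48 h; the number belongs to the whole pool; some results filed as inactive read as strong as hits; inactives centre near 12; 0% = biofilm with clotrimazole alone and 100% = kill control; retested singly at about 60 µM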
#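 Incubation: 24 h biofilm formation, then 48 h compound exposure, 37 °C | Material: C. albicans biofilms | Buffer or medium: RPMI/MOPS medium, pH 7.0 | Measured by: 2-h Alamar Blue fluorescence, 535/590 nm excitation/emission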
# Starred values were filed as active, the others as inactive. Some of the compounds tested. The share of hits here may be higher or lower than overall.
SMILES,Calb biofilm kill
CCOC(=O)c1sc(C)c2c(=O)n(Cc3ccc(Cl)cc3)cnc12,19
C#CCOc1nc(C)cc(C)c1S(=O)(=O)c1ccccc1C,18
CN(CC(=O)Nc1ccc(N2CCOCC2)cc1)CC(=O)Nc1ccc(N2CCOCC2)cc1,0
CC(=O)Oc1ccc(Cn2cnc3cc4ccccc4cc32)cc1,14
COc1cccc(C(c2c(NC(=O)c3ccccc3)sc(C)c2C)N2CCN(C)CC2)c1 (configuration not stated),17
Cc1nnc(N(C)C(=O)c2ccc3c(c2)OCO3)s1,29
Cc1cc(C(=O)CC#N)c(C)n1-c1c(C)n(C)n(-c2ccccc2)c1=O,8
CCOC(=O)c1ccc(NC(=S)Nc2ccc3[nH]c(=O)[nH]c3c2)cc1,1
CN(C)C(CNc1ncnc2sc3c(c12)CCCC3)c1ccco1 (configuration not stated),11
CCC(C)N1C(=O)S/C(=C/c2ccc(N3CCOCC3)cc2C)C1=O (configuration not stated),16
COc1ccc(Cl)cc1Nc1ncnc2sc(C)c(S(=O)(=O)N3CCC(C)CC3)c12,5
Cc1cc(C)c(C#N)c(Nc2ccccc2)n1,13
CNC(=O)Oc1ccc2c(c1)[C@]1(C)CCN(C)[C@@H]1N2C,16
CC(=O)c1cc(NC(=O)c2ccccc2)c(=O)oc1C,14
N#Cc1ccc(OCC(=O)n2cc(C(=O)c3cc(Cl)cc(Cl)c3O)cn2)cc1,13
Cc1cc(OCc2ccc(C(=O)n3cccn3)o2)ccc1Cl,8
CC(C)(CO)NC(=O)Nc1ccc(Cl)c(Cl)c1,8
O=C(COC(=O)c1ccccc1SCC(=O)NC1CCS(=O)(=O)C1)NC1CCS(=O)(=O)C1 (configuration not stated),13
O=C(CSc1nc(-c2ccco2)cc(C(F)(F)F)n1)Nc1ccc(C(=O)N2CCOCC2)cc1,14
Cc1ccc(-c2cccc(C(=O)NCc3ccccc3)n2)c2ccccc12,15
Cn1cc(Br)c(C(=O)N2CCN(c3cccc(Cl)c3)CC2)n1,15
C/C(=N\Nc1ccc(C(=O)O)cc1)c1ccc2c(c1)Nc1ccccc1S2,7
Nc1[nH]c(N=NC(=O)c2ccc(Cl)cc2)c2ccccc12,12
COc1ccc(NC(=O)c2ccc(NC3CC(=O)N(c4ccc(C)cc4C)C3=O)cc2)cc1 (configuration not stated),15
C=CCn1c(=S)[nH]c2scc(-c3ccc(C)o3)c2c1=O,16

# Some of the entries so far, field by field.
Structure: Cc1cc(C(=O)CC#N)c(C)n1-c1c(C)n(C)n(-c2ccccc2)c1=O
- Calb biofilm kill = 8

Structure: CCOC(=O)c1ccc(NC(=S)Nc2ccc3[nH]c(=O)[nH]c3c2)cc1
- Calb biofilm kill = 1

Structure: CN(C)C(CNc1ncnc2sc3c(c12)CCCC3)c1ccco1 (configuration not stated)
- Calb biofilm kill = 11

Structure: CCC(C)N1C(=O)S/C(=C/c2ccc(N3CCOCC3)cc2C)C1=O (configuration not stated)
- Calb biofilm kill = 16

# Quoted from the results shown (2 entries):
SMILES,Calb biofilm kill
CNC(=O)Oc1ccc2c(c1)[C@]1(C)CCN(C)[C@@H]1N2C,16
CC(=O)c1cc(NC(=O)c2ccccc2)c(=O)oc1C,14

# The main list resumes with the three entries that preceded the break.
SMILES,Calb biofilm kill
Nc1[nH]c(N=NC(=O)c2ccc(Cl)cc2)c2ccccc12,12
COc1ccc(NC(=O)c2ccc(NC3CC(=O)N(c4ccc(C)cc4C)C3=O)cc2)cc1 (configuration not stated),15
C=CCn1c(=S)[nH]c2scc(-c3ccc(C)o3)c2c1=O,16
C=CCOn1c(C)c(C(C)=O)c2c3nonc3ccc21,10
CC#CCN1c2ccccc2[C@]23C[C@@H](C(=O)OC)N(C(=O)c4ccco4)C2=NC(C(=O)OC)=C(C(=O)OC)[C@H]13,17
Cc1cc(/C=C2\C(=N)N3N=C(c4ccco4)SC3=NC2=O)c(C)n1Cc1ccccc1,14
C=CCn1c(O)c(N=NC(=O)c2cccnc2)c2cc(Br)ccc21,-1
COc1ccc(CCNC(=O)CSc2nnc3ccc(-c4ccncc4)nn23)cc1,-1
COc1cc(S(=O)(=O)N2CCOCC2)ccc1N,17
CSc1ncccc1C(=O)Nc1nc2ccc(S(C)(=O)=O)cc2s1,1
CC(=O)c1ccc(-n2ccnc2)cc1,10
O=C(CC1Nc2cccc3cccc(c23)NC1=O)Nc1ccc(F)cc1 (configuration not stated),16
CC(=O)Oc1cc(OC(C)=O)c2c(=O)c(-c3ccc4c(c3)OCCCO4)c(C)oc2c1,15
Nc1c(C(O)(C(F)(F)F)C(F)(F)F)cc(C(O)(C(F)(F)F)C(F)(F)F)c2ccccc12,13
COc1ccccc1C1=NC(c2ccc(F)cc2)N=C1C (configuration not stated),19
COc1ccccc1C(=O)Oc1cc(N)n(S(=O)(=O)c2ccccc2)n1,-7
C=CCn1c(NCc2c[nH]c3ccccc23)nc2ccccc21,14
CCCCN(CCCC)Cc1ccc(C(=O)NNC(=O)Nc2ccc(Cl)cc2)o1,5
Cc1csc(NC(=O)c2cc3c(C)nn(Cc4ccccc4Cl)c3s2)n1,11
O=C(Nc1nnc(C2CC2)s1)C1CCCCN1S(=O)(=O)c1ccccc1 (configuration not stated),18
CCOc1cc(CNCCc2c[nH]c3ccccc23)cc(Cl)c1OCC(N)=O,25
Cc1cc(NN)nc(NS(=O)(=O)c2ccccc2)n1,7
Fc1ccc(NC(=S)NNc2ncc(C(F)(F)F)cc2Cl)c(F)c1,6
COc1ccc(/C=N/NC(=O)c2ccc(COCC(F)(F)C(F)F)cc2)cc1,-8
CC(C)CN1CCN(Cc2cccc3ncccc23)CC1CCO (configuration not stated),26
CCc1ccccc1NC(=O)Nc1cccn(Cc2ccc(F)cc2)c1=O,2
O=C(O)CSc1cc(C(=O)c2cc(F)ccc2O)cn2c(=O)c3c(-c4ccccc4)csc3nc12,33
CCOc1cc(N2CCOCC2)c(OCC)cc1NC(=O)C(C)(C)C,18

# Reprinted from the part before: 3 entries; new compounds follow.
SMILES,Calb biofilm kill
CCc1ccccc1NC(=O)Nc1cccn(Cc2ccc(F)cc2)c1=O,2
O=C(O)CSc1cc(C(=O)c2cc(F)ccc2O)cn2c(=O)c3c(-c4ccccc4)csc3nc12,33
CCOc1cc(N2CCOCC2)c(OCC)cc1NC(=O)C(C)(C)C,18
Cc1nn(CC2CC2)c(=O)n1-c1ccc(C(C)C)cc1,-1
Cc1ccc(-c2csc(NC(=O)CSc3nnc4c(n3)[nH]c3ccccc34)n2)cc1,16
CNC(=S)N(CCc1c(C)[nH]c2ccc(OC)cc12)Cc1cccnc1,14
COc1ccc(CCN(C)c2ccc(S(=O)(=O)N3CCCC3)cn2)cc1OC,5
O=C(OCC(=O)c1c[nH]c2ccccc12)c1cccc(O)c1,14
COCc1c(C#N)c(NCCc2ccccc2)nc(C)c1[N+](=O)[O-],18
Oc1ccccc1C=Nc1ccccc1-c1nc2ccccc2[nH]1,17
CCOC(=O)C1CCN(C(=O)c2ccc(CNS(=O)(=O)c3ccc(C)cc3)cc2)CC1,10
O=C(N/C=C/c1ccco1)NCc1ccccc1,14
COc1c(N2CCN(C(=S)NC3CC4CCC3C4)C(C)C2)c(F)cc2c(=O)c(C(=O)O)cn(C3CC3)c12 (configuration not stated),31
Cc1cc(N2CCN(C)CC2)nc2ccc(NC(=S)NCCN3CCc4ccccc4C3)cc12,4
Cc1ccc(C)c(CSC2=NN3CCCC(=O)N=C3S2)c1,20
COc1ccc(NC(=O)c2nc(-n3nc(C)cc3C)ccc2Cl)cc1Cl,-10
CCOc1ccc2c(c1)/C(=N/N1C(=O)c3ccccc3C1=O)C(=O)N2,0
O=C(COC(=O)c1ccc2c(c1)OCO2)Nc1ccccc1,5
Cc1ccc(NC(=S)N(CCCN2CCC(C)CC2)Cc2ccco2)cc1C,-3
Cn1c(=O)c(C(=O)CCl)c(N)n(CC2CC2)c1=O,17
CC1=NN(C(N)=S)C(=O)C1N=Nc1cccc(C)c1 (configuration not stated),15
O=C(CSc1ccc(-c2ccncc2)nn1)N1CCCCC1,12
COc1cccc(CN(c2ccc3c(c2)CCC3)S(=O)(=O)c2ccc(-n3cnnn3)c(OC)c2)c1,22
C=CCn1c(C(C)NC(=O)CCC)nc2ccccc21 (configuration not stated),11
O=C(Nc1ccc(C2=NCCN2)cc1)c1ccc(C(=O)Nc2ccc(C3=NCCN3)cc2)c([N+](=O)[O-])c1,15
Cc1ccc(C(=O)c2cccc(N)c2)cc1C,13
O=C(CNC(=S)NC(=O)c1cccc([N+](=O)[O-])c1)c1ccccc1,14
COc1cccc(-n2nc(C(=O)N3CCN(Cc4ccccc4)CC3)c3ccccc3c2=O)c1,27
# (more compounds)
SMILES,Calb biofilm kill
Cc1cc(C)nc(Sc2ccc([N+](=O)[O-])cc2[N+](=O)[O-])n1,10
CCOCCCNC(=O)c1cc(Sc2nnc(C)s2)nc2ccccc12,23
CC1(C)Cc2nc3nc(SCC(=O)Nc4ccccc4)nc(N)c3cc2CO1,16
COCn1ccnc1C(O)(c1ccc(OC)cc1)c1ccc(OC)cc1,8
CC1=C(C#N)C(/C=N/OCc2ccc(F)cc2Cl)CC(=O)N1 (configuration not stated),10
CC(C)NC(=S)Nc1c(N)[nH]c(=O)[nH]c1=O,9
Cc1ccc(NC(=S)N(Cc2cccs2)Cc2cc3cc(C)cc(C)c3[nH]c2=O)cc1,7
CC1(C)CC(=O)C(N=Nc2ccc(S(=O)(=O)N3CCOCC3)cc2)=C(O)C1,12
CCn1c2ccccc2c2cc(NC(=O)c3cccc(OC)c3OC)ccc21,16
C#CCOC(=O)C[N+](C)(C)CC=C,16
Clc1ccccc1CONc1ncnc2nonc12,5
O=C(Cc1cccs1)N1CCN=C1SCc1ccccc1F,8
CCCSC1=C(C#N)C2(CCCCC2)C(C#N)=C(N)N1,-6
N=c1sccn1CC(=O)Nc1cccc(S(N)(=O)=O)c1,13
O=c1c2sc(-c3ccccc3)cc2nc2n1CCC2,6
C#CCOCCOCCOCCNc1nc(N2CCN(C(=O)[C@H]([C@@H](C)CC)n3cc([C@@H](N)CC(C)C)nn3)CC2)nc(N2CCN(C(=O)[C@H](Cc3ccc(O)cc3)n3cc([C@@H](N)C(C)CC)nn3)CC2)n1 (some centres not stated),14
C=CCNc1scc(-c2ccccc2)[n+]1CC=C,12
Clc1cccc(-c2ccc(/C=N/n3cnnc3)o2)c1Cl,7
O=C(c1cc2c(s1)CCCC2)N1CCN(S(=O)(=O)c2ccccc2C(F)(F)F)CC1,-13
Cc1ccc2c(c1)C(O)(C1COC(C)(C)CC1=O)C(=O)N2C (configuration not stated),23
Cc1[nH]n(-c2ccccc2)c(=O)c1C(=O)c1ccc(Cl)cc1,16
NNC(=O)c1sccc1OCc1ccc(F)cc1,10
Nc1nc(Sc2ncccc2[N+](=O)[O-])n[nH]1,1
CCN(CC)CCN(Cc1cc2cc3c(cc2[nH]c1=O)OCO3)C(=S)NCC1CCCO1 (configuration not stated),20
Cc1c(Cl)cccc1NC(=O)N1CCCC1,29
# The list continues.
SMILES,Calb biofilm kill
CCC1CCC(C(=O)NC(CCSC)C(=O)NCCN(CC(C)C)CC(C)C)CC1 (configuration not stated),7
COC(=O)/C=C/c1sc2nc(C)cc(C)c2c1N=CN(C)C,2
Cc1ccc(C(=O)O)cc1Nc1ncnc2sc3c(c12)CCC3,14
CC(C)(C)NS(=O)(=O)c1ccc(CCC(=O)N2CCCC2)cc1,12
COCC1CCN(Cc2nc(Cc3ccccc3Cl)no2)CC1,13
COc1ccc(NC(=O)Nc2ccc(C)cc2Br)c(OC)c1,-17
O=C(CSc1nnc(-c2ccccc2)n1CC1CCCO1)N1CCCC1 (configuration not stated),3
CCN(C(=O)CSc1nc2nc(C)cc(C)n2n1)C1CCS(=O)(=O)C1 (configuration not stated),3
O=C(Cn1nnc2ccccc2c1=O)NCCc1ccc(F)cc1,18
COc1ccc(OCC(O)CN(CCO)CC(O)Cn2ccc3ccccc32)cc1 (configuration not stated),9
CCOC(=O)c1nc(Nc2ccc(N3CCC(C)CC3)cc2)c2ccccc2n1,11
CCOC(=O)c1sc(=S)n(-c2ccccc2Cl)c1C,17
COc1ccc(OC)c(CN(CCN2CCOCC2)S(=O)(=O)c2ccc(NC(C)=O)cc2)c1,16
Cc1nn(C)cc1NC(=O)c1ccc(Br)o1,17
CCN(CC)c1nc(-c2ccccc2)ncc1S(=O)(=O)c1ccc(C)cc1,11
c1ccc(-c2ncc3c(ccc4ccccc43)n2)cc1,14
COc1cc(/C=N/Nc2ccc(C(=O)O)cc2)cc(OC)c1OC,15
O=C(CSc1ccc(-c2ccco2)nn1)NC1CCCCC1,15
C1CCCC(N2CCNCC2)CC1,6
CCOC(=O)N1CCN(c2nc(N(c3ccccc3)c3ccccc3)nc(-n3ccnc3)n2)CC1,5
COc1ccc([N+](=O)[O-])cc1NC(=O)C1CCCCC1C(=O)O (configuration not stated),7
O=C(/C=C1\SC(=O)NC1=O)Nc1ccc(C(=O)O)cc1,5
Cc1c(Cc2ccccc2)c(=O)oc2cc(O)cc(O)c12,2
CC(=O)c1ccc(NC(=O)N2CCN(c3ccc(C)cc3)C(C)C2)cc1 (configuration not stated),12
CC1=C(C(=O)Nc2ccccc2)C(c2cc(CN3CCOCC3)cs2)C2=C(CCCC2=O)N1 (configuration not stated),-3
# Later entries.
SMILES,Calb biofilm kill
C=CCN1N=C(/C=C/c2ccccc2)CCC1=O,20
CN(C)S(=O)(=O)c1cccc(NC(=S)NCc2ccco2)c1,17
Cc1ccc(S(=O)(=O)N2CCCN(S(=O)(=O)c3ccc4ccccc4c3)CC2)cc1,22
COc1cc2c(cc1NC(=O)COC(=O)/C=C/c1ccccc1)oc1ccccc12,7
CC(=O)O[C@@H]1[C@H]2[C@@H](C[C@@H](C)[C@@H]3C=CC(=O)[C@@]13C)OC(=O)[C@@H]2C,19
O=C(Cn1cc(C(F)(F)F)cc(Cl)c1=O)NCCc1ccc(Cl)cc1Cl,24
NC(=O)CSc1nnc(-c2cccnc2)n1Cc1ccccc1,-2
Cc1ccc2c(c1)N/C(=C(\C=C(/Cl)[N+](=O)[O-])[N+](=O)[O-])N2,-5
